FGF22 binding – FGF22 (human) thermal shift binding | Q9HCT0 | 1.5% of 340,000 active | AID 651658 | calls only at 9.99 µM | recombinant FGF22 thermal shift, SYPRO orange fluorescence; percent of sucrose octasulfate shift, DMSO zero;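 active = melting point raised past a set limit in the mean and every replicate; inconclusive = no clear call; three in four hits are not shown here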
Target sequence (Q9HCT0 whole entry, looked up): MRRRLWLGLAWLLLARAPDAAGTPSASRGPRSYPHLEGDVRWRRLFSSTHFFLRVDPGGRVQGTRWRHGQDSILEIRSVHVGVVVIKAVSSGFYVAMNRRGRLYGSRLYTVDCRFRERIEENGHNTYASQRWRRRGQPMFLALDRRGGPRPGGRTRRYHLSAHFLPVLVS
T cruzi inh – T. cruzi replication inhibition. T. cruzi beta-gal in NIH3T3, luminescence, 90 h. inhibition, % (test concentration not listed). 1.4% of 300,000 active;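 active = mean inhibition across valid replicates above about 55%, limit read from the data; inconclusive = mean below that limit but half or more replicates reach it; inactive = mean below it, under half of replicates reach it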;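 note: signal also drops with host cell toxicity which is not excluded here; 0% = plate median of DMSO wells and 100% = zero luminescence signal; higher percent means less beta-gal luminescence so fewer parasites; stock transfer was 50 nL into about 50 µL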
ALR H2O2 inh – blocks human ALR sulfhydryl oxidase activity; purified ALR, DTT oxidation, H2O2 HRP-luminol luminescence; inhibition, % (no concentration beside the values); 3.8% of 290,000 active;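 active = mean and each replicate at 75% or more; inconclusive = only one of the two met; inactive = neither met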;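 note: stock transfer was 7.5 nL into about 7.5 µL; 0% = neutral wells and 100% = wells with inactivated enzyme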
Target sequence (P55789 whole entry, looked up): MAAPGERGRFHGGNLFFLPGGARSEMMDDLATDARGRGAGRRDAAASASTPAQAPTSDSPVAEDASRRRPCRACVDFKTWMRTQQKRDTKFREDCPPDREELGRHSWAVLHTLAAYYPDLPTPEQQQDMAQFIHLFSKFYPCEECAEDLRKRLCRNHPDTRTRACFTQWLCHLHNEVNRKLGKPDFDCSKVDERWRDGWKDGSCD
Calb FLC – C. albicans growth modulation with fluconazole; C. albicans CaCi-2 (fluconazole-resistant clinical isolate) + fluconazole, Alamar Blue growth, 48 h; 0.57% of 300,000 active; AID 1979; growth inhibition, % (test concentration not listed);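 active = most replicates above 75%; inconclusive = exactly half above 75%; inactive = most below 75%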;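 note: all wells also contain fluconazole at 8 µg/ml as a sub-toxic cotreatment; 0% = median of DMSO wells and 100% = median of geldanamycin control wells; wells of about 8 µL received 7.5 nL stock; the first replicate is given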
MLL AF4-AF9 inh – inhibitors of human MLL-AF4/AF9 interaction; P42568; AlphaScreen, biotin-AF4 peptide binding to FLAG-AF9; inhibition, % at 10 µM; 0.47% of 350,000 active; AID 651704;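 active = every replicate reaching a set inhibition limit, whatever the replicate mean, cut at about 25% in these data; inconclusive = mean inhibition reaches that limit but some replicates miss it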;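 note: 0% = plate neutral control median and 100% = total signal loss; the record names both 10 and 1 µM as test concentration; the first replicate is given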
Target sequence (P42568 whole entry, looked up): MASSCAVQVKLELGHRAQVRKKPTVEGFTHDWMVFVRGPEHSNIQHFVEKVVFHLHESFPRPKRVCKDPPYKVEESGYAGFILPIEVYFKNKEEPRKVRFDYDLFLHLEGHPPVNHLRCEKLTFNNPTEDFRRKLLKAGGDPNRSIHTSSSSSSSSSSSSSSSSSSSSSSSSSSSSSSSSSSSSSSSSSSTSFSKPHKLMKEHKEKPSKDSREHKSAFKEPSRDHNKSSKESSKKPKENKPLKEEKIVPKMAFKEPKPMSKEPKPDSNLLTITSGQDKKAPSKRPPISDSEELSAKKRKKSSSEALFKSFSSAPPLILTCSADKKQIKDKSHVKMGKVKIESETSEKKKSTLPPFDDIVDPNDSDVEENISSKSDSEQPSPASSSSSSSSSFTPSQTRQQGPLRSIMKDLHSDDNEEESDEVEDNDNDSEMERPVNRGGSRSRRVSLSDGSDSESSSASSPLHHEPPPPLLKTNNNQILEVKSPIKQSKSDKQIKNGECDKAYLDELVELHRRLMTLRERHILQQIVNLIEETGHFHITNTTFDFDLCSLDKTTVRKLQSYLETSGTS
Beta apoptosis – blocks beta cell apoptosis | INS-1E cytokine-induced death, ATP luminescence, 48 h; percent of positive-control rescue, neutral wells zero | protection from apoptosis, % (test concentration not listed) | 0.8% of 300,000 active | AID 435005;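 active = all replicates at 75% or more, or half of them and the mean; inconclusive = half reach 75% but not the mean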;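 note: 0% = cytokine-treated negative control wells and 100% = positive control rescue; higher means more ATP so stronger rescue from cytokine killing; wells of about 40 µL received 100 nL stock; the first replicate is given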
RanGTP-Imp inh – disruptors of Ran-importin-beta complex formation – biochemical, FRET, CFP-Ran, YFP-importin-beta, homogeneous, primary screen | cell-free CFP-Ran/YFP-importin-beta FRET ratio | inhibition, % (test concentration not listed) | 1.1% of 300,000 active | AID 2216;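 active = most replicates above 15%; inconclusive = exactly half above 15%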;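 note: 0% = DMSO wells and 100% = Ran loaded with GDP instead of GTP; wells of about 40 µL received 100 nL stock; the first replicate is given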
Ecoli rRNA inh – selective bacterial rRNA inhibition in E. coli. E. coli WT GFP vs humanized-ribosome RFP mutants, fluorescence, 24 h; active compounds read low; DMSO median 0, no signal -100. GFP signal change (wild-type ribosome), % (concentration not given with the values). 1.6% of 350,000 active;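 active = significant combined selectivity score with lowered wild-type GFP, culture density cut under 30%, mutant RFP and density less affected; inactive = any of these conditions unmet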; note: one replicate is shown; some compounds called inactive have numbers as strong as hits
Ecoli rRNA inh OD600 – further read-out of Ecoli rRNA inh, marked with its call; OD600 change, %; measured here: OD600 growth;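 optical density of the mix in the first replicate; 0 = DMSO median and -100 = no signal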
Ecoli rRNA inh RFP – also measured in Ecoli rRNA inh; calls as there; RFP signal change, %; measured here: RFP humanized mutant strains;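 first replicate; 0 = DMSO median and -100 = no signal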
Numbers without * were called inactive; i = inactive; ? = inconclusive; . = no result given; + = active, no number. Not all compounds are listed, so the mix of outcomes need not match the whole.

Molecule,FGF22 binding,T cruzi inh,ALR H2O2 inh,Calb FLC,MLL AF4-AF9 inh,Beta apoptosis,RanGTP-Imp inh,Ecoli rRNA inh,Ecoli rRNA inh OD600,Ecoli rRNA inh RFP
COc1ccc(C(=O)Nc2cc(OC)cc3cccnc23)cc1,i,30,.,12,-0.9,3,6.4,4,7,3.3
Cc1cccc(NS(=O)(=O)c2cc(C(=O)N3CCOCC3)ccc2Cl)c1,i,-6,1,7,-0.1,-4,-0.7,6,-1,0.2
CCC(CO)Oc1cc(NC(=O)c2ccc(C)cc2)c2ncn(C(C)C)c2c1 (centres undefined),i,.,-28,.,-1.6,-1,.,-11,17,-3.8
COc1ccc(CNC(=O)/C=C/C(=O)O)cc1,i,.,3,2,1.1,0,1.7,-3,-16,-8.4
COc1ccc(OC)c(NC(=S)N2CCN(c3ccccn3)CC2)c1,.,-9,-23,0,.,-5,-5.5,.,.,.
CC(C)c1ccc(N=C2N=C(N)c3ccccc32)cc1,i,-19,50,7,-1.3,-7,-0.1,-7,-4,-6.0
Cc1[nH]nc(-c2ccc(OCc3cnn(-c4ccccc4)c3)c(C)c2O)c1Oc1ccccc1,.,12,4,-5,.,7,-0.7,.,.,.
CCOc1ccc(-c2cc(C(=O)NCCCN3CCOCC3)c3ccccc3n2)cc1,i,37,-2,0,-1.6,3,-4.6,2,5,3.5
Cc1ccc(S(=O)(=O)N(CC(=O)Nc2ccc(F)cc2)C(=O)N2CCN(C)CC2)cc1,i,-6,-2,9,-3.1,-2,5.2,6,12,-0.9
Cc1cc2ccccc2n2c(SCC(=O)Nc3ccc(S(=O)(=O)N4CCC(C)CC4)cc3)nnc12,i,22,-7,5,7.3,4,-0.6,.,.,.
CCn1cc(Cl)c(C(=O)Nc2c(C)nn(Cc3c(F)c(F)c(F)c(F)c3F)c2C)n1,i,11,.,-2,-5.5,.,2.9,4,9,2.3
CCC(CC)=NNc1ccc(S(N)(=O)=O)cc1[N+](=O)[O-],i,-2,-5,-8,2.4,6,-1.6,3,-2,0.1
Cc1ccc2c(c1)c1c(n2CC(O)Cn2nc(C)c(Br)c2C)C(=O)CCC1 (centres undefined),.,1,-8,0,.,2,2.1,.,.,.
S=C(NCC1CCCO1)N1CCN(c2ccc(Cl)c(Cl)c2)CC1 (centres undefined),.,23,1,29,0.9,22,?,-57,-79,-18
Cc1ccc(N(C(=O)Cn2nnc3ccccc32)C(C(=O)NCc2ccco2)c2cccnc2)cc1 (centres undefined),.,10,-3,28,.,-3,-0.6,.,.,.
Cc1ccc(C)c(NC(=O)NC2CCCCCCC2)c1,i,9,-16,0,-0.9,4,-2.3,1,-6,-1.4
CC(CCc1ccccc1)N1CCN(Cc2ccccc2)CC1 (centres undefined),i,58*,7,-24,0.9,2,0.8,9,2,-5.9
CCc1sc(C(=O)NCCc2ccc(S(N)(=O)=O)cc2)cc1Br,i,14,49,11,-2.0,-3,2.7,-35,-29,-2.0
Cc1ccc(S(=O)(=O)N2CCOC23CCN(S(=O)(=O)c2c(C)cc(C)cc2C)CC3)cc1,i,31,-3,0,0.6,23,-3.5,3,0,3.1
CCCCN1C(=O)C(O)=C(C(C)=O)C1c1ccc(OC)cc1OC (centres undefined),.,-8,-6,3,.,-7,3.1,.,.,.
O=C(Cn1nnc2ccccc21)N/N=C\C=C\c1ccccc1,.,1,.,-2,.,5,7.1,.,.,.
CCOC(=O)c1cnc2c(C)cccc2c1NCc1ccco1,.,32,4,10,.,5,4.3,.,.,.
COc1cccc(-n2c(SCC(N)=O)nc3ccccc3c2=O)c1,i,-14,4,1,-1.1,0,2.2,12,-5,-1.9
COc1cccc(NC(=O)CN(C)C(=O)CC(NC(=O)c2ccccc2Cl)c2ccccc2)c1 (centres undefined),i,.,-4,.,-6.6,-2,.,-5,-9,-0.1
O=C(COC(=O)c1ccc(F)c(S(=O)(=O)N2CCOCC2)c1)c1ccc(Cl)cc1,i,.,-5,.,-0.5,-5,.,5,8,-4.6
O=C(O)c1cccc(CN2C(=O)c3ccccc3C2=O)c1,i,-17,1,6,0.6,-1,-0.5,2,-16,-5.4
O=C(c1cccc(S(=O)(=O)NCc2ccccc2)c1)N1CCN(Cc2ccccc2)CC1,.,27,.,-1,.,10,?,.,.,.
CCn1nnc(NC(=O)c2c(OC)cccc2OC)n1,.,-6,.,-1,.,-7,1.5,.,.,.
CC(=O)Nc1ccc(S(=O)(=O)Nc2ccc(S(=O)(=O)Nc3nccs3)cc2)cc1,i,-10,-1,9,2.2,-4,7.6,6,5,-1.5
CCCCn1c(N)c(N(CCOC)C(=O)c2cc3c(s2)CCC(C)C3)c(=O)[nH]c1=O (centres undefined),.,-5,-5,-7,1.0,-1,-0.6,0,-6,1.4
CCCn1nc(NC(=O)C2CCCO2)c2cc3ccc(C)cc3nc21 (centres undefined),i,-13,.,14,-14,-1,21*,-14,-2,-5.5
CCOC(=O)/C=C1\SC(C)C(=O)N1CC(=O)N(CCC#N)c1ccccc1 (centres undefined),i,.,-1,.,4.5,1,.,0,6,-2.3
Cc1cccc([C@@H]2[C@@H]3C(=O)N(Cc4ccccc4)C(=O)[C@@H]3[C@]3(Cc4ccccc4)C(=O)N(c4cccc(F)c4)C(=O)N23)c1,i,-7,-7,16,0.9,-8,-0.6,4,15,-2.5
C[C@H](N)c1nnc(SCC(=O)N(C)C)o1,.,-20,-11,-5,.,-1,?,.,.,.
O=C(NCCc1ccc(Cl)cc1)C1CCCN(S(=O)(=O)N2CCCCCC2)C1 (centres undefined),i,9,.,3,-2.5,-13,5.1,0,-16,1.4
N#Cc1nc(-c2ccccc2Cl)oc1N1CCCCC1,.,14,-1,18,.,2,?,.,.,.
O=C1CCN(CCc2ccccc2)CCN1CCO,i,-5,-1,-6,-4.2,-1,-1.6,20,3,-1.0
CCCC1(CCC)NC(=O)N(CC(=O)Nc2cccc(OC)c2)C1=O,.,5,-1,2,.,5,4.9,.,.,.
COc1cc(NC(=O)CN2C(=O)NC(CC(C)C)C2=O)cc(OC)c1OC (centres undefined),i,.,.,.,-2.5,-1,.,5,11,-2.4
Fc1ccc(-c2n[nH]c(=S)c3ccccc23)cc1,i,-17,25,-34,-0.2,3,-0.3,-7,-9,-4.7
CCOC(=O)c1cc(NC(=O)c2c(C)noc2C)cc(C(=O)OCC)c1,.,-7,-9,-18,.,-6,.,.,.,.
Cc1cc(S(=O)(=O)n2[nH]c(=O)c(CCO)c2C)c(Cl)cc1Cl,i,-14,-1,4,-0.8,-5,7.6,-1,-15,4.6
COc1cccc(NC(=O)N2CCCC2C(=O)NC(C)C)c1 (centres undefined),.,-6,-14,7,.,-5,-1.8,.,.,.
COc1cc(NC(=O)c2ccccc2[N+](=O)[O-])ccc1NC(=O)C(C)C,i,3,1,-16,3.9,-11,1.9,16,9,4.5
Clc1ccccc1CNc1ncnc2nc[nH]c12,i,21,1,-4,-5.9,-10,8.6,-4,-5,0.3
CCc1ccc(-n2c(C)cc(/C=N/NC(=O)OC)c2C)cc1,i,17,-1,-18,5.3,-1,0.0,3,2,-1.0
CSCCC(NC(=O)c1cccc(C)c1)C(=O)OCN1C(=O)c2ccccc2C1=O (centres undefined),i,-20,-3,3,3.8,-3,1.9,10,3,-2.7
Cc1noc2ncnc(Sc3ccc(Cl)cc3)c12,.,36,80*,86*,.,-49,1.2,.,.,.
O=C(CSc1ncccn1)NN=C1CCCCCCC1,.,-19,28,-5,.,0,-0.6,.,.,.
CCCCCCCn1c(=O)c(C(=O)OC)c(N)c2ccccc21,i,18,0,0,-3.2,.,3.5,-5,-4,-0.9

Next section:
Molecule,FGF22 binding,T cruzi inh,ALR H2O2 inh,Calb FLC,MLL AF4-AF9 inh,Beta apoptosis,RanGTP-Imp inh,Ecoli rRNA inh,Ecoli rRNA inh OD600,Ecoli rRNA inh RFP
CCOc1ccc(C(=O)CCC(=O)Nc2ccc(C)cn2)cc1,+,2,.,-3,-15,-2,-2.5,13,15,2.3
Cc1cccc(NC(=O)C(C)Sc2nc3ccccc3c(=O)n2CCCN2CCOCC2)c1 (centres undefined),i,.,2,.,4.2,5,.,-5,-7,2.5
O=C(CCN1C(=O)/C(=C/c2ccccc2Cl)SC1=S)NC1C=CS(=O)(=O)C1 (centres undefined),i,-28,-1,-1,1.1,-12,2.3,-2,1,0.5
CCSC1=C(C#N)C(c2ccc(C)s2)CC(=O)N1 (centres undefined),i,0,0,6,-2.0,-6,-2.4,12,20,-0.8
Cn1cccc1CC(=O)NNC(=S)Nc1ccc(Cl)cc1,i,-19,55,0,3.7,-1,-2.3,-7,1,-0.7
COc1cccc(-c2noc(-c3ccc4c(c3)OCO4)n2)c1,i,-13,-34,-8,-1.1,8,0.8,19,12,1.2
S=C(NCc1ccco1)N1CCN(c2nc(-c3ccc(Cl)cc3)cs2)CC1,i,32,32,5,2.1,-8,-0.6,-24,-24,-1.0
COC(=O)C1=C(C)N(Cc2ccco2)C(=O)C1,.,-12,5,0,.,-2,3.2,.,.,.
COc1ccc(N(Cc2cc3cc(C)ccc3[nH]c2=O)C(C)=O)cc1,i,1,0,5,-3.4,-1,-0.7,10,13,-0.2
CN(C)/C=C(\c1cnc(Cl)s1)S(=O)(=O)c1ccccc1,i,-18,.,-26,1.0,-2,0.9,11,-1,1.3
O=C(Cc1ccccc1Cl)N1CCN(c2ccccn2)CC1,i,-15,0,0,-1.2,-3,9.2,8,2,-0.3

Ordered by length of the SMILES (ascending): part of the list above
Molecule,FGF22 binding,T cruzi inh,ALR H2O2 inh,Calb FLC,MLL AF4-AF9 inh,Beta apoptosis,RanGTP-Imp inh,Ecoli rRNA inh,Ecoli rRNA inh OD600,Ecoli rRNA inh RFP
COC(=O)C1=C(C)N(Cc2ccco2)C(=O)C1,.,-12,5,0,.,-2,3.2,.,.,.
CCSC1=C(C#N)C(c2ccc(C)s2)CC(=O)N1 (centres undefined),i,0,0,6,-2.0,-6,-2.4,12,20,-0.8
O=C(Cc1ccccc1Cl)N1CCN(c2ccccn2)CC1,i,-15,0,0,-1.2,-3,9.2,8,2,-0.3
CCOc1ccc(C(=O)CCC(=O)Nc2ccc(C)cn2)cc1,+,2,.,-3,-15,-2,-2.5,13,15,2.3
COc1cccc(-c2noc(-c3ccc4c(c3)OCO4)n2)c1,i,-13,-34,-8,-1.1,8,0.8,19,12,1.2
COc1ccc(N(Cc2cc3cc(C)ccc3[nH]c2=O)C(C)=O)cc1,i,1,0,5,-3.4,-1,-0.7,10,13,-0.2

Screening data (PubChem BioAssay)
